# Source: PubChem
# Cruzain inh noDet: inhibitors of Trypanosoma cruzi cruzain without detergent; AID 1476; purified cruzain, Z-FR-AMC fluorescence, no detergent; Potency, µM, for inactives: max response, negative = inhibition, actives largely listed as inhibitors; 2.3% of 200,000 active;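 note: plate controls were enzyme without inhibitor for no effect and buffer without enzyme for full effect; nearly all actives have a fitted effect of over 40% in size; top concentration of the series not given in the record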
# Target sequence (P25779 123-467 limits assumed): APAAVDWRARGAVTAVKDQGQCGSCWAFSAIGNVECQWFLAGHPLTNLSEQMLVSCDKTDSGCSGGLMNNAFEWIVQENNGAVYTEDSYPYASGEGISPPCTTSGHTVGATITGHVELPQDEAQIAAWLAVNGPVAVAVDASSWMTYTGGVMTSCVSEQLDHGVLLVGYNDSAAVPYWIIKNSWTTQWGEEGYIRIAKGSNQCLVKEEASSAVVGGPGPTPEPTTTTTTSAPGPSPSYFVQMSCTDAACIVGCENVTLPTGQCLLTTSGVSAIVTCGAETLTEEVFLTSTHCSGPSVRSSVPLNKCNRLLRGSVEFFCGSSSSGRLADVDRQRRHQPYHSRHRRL
#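 Purified cruzain at 1.5 nM, pre-incubated 15 min with compound at room temperature in 100 mM sodium acetate pH 5.5, 5 mM DTT, 0.00005% Triton X-100. Reaction started with 2 uM Z-FR-AMC; AMC fluorescence increase over 60 s gives rate.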
# SARS PLpro yeast: inhibitors of SARS-CoV papain-like protease in yeast; S. cerevisiae expressing SARS-CoV PLpro, growth rescue; control for the full effect not named in the record; Potency, µM (doses to about 32.9 µM), for the others: at the highest dose activity, positive = growth rescue; 0.19% of 330,000 active; active means well fitted rising curve with a large enough effect; inconclusive means small, poorly fitted or top-dose-only effect; inactive means no such curve, though single readings can be large or run the other way; note: 0% is about no effect; nearly all actives have a fitted effect of over 55% in size; growth read by luminescence after 48 h
# MARV entry inh: inhibitors of Marburg virus binding or cell entry; Marburg virus pseudotyped entry inhibition, cell reporter; control for the full effect not named in the record; about a third of the inactives were read at about 46 µM; Potency, µM (titrated, usually from 37.8 µM), for the others: at the highest dose activity change, negative = inhibition, most hits filed as inhibitors; 1.8% of 300,000 active; active = well fitted inhibition curve with a large enough effect; inconclusive = small, poorly fitted or top-dose-only effect, or effect the other way; inactive = flat fitted curve, though single readings scatter; tested in HEK293 cells; about a fifth of its hits are not listed in these tables; note: % is set by controls: 0 for no effect and ±100 for the full control effect; luciferase read-out
# StopGo reporter: lowers the luciferase signal of an FMDV 2A StopGo reporter; human cells with a luciferase reporter of 2A StopGo recoding; control for the full effect not named in the record; Potency, µM (highest dose often 57.9 µM), for inactives: at the highest dose signal change, negative = less light; 1.2% of 410,000 active; active = well fitted falling curve with a large enough effect; inconclusive = small, poorly fitted or top-dose-only effect; inactive = no such curve, though single readings can be large or run the other way; tested in HEK293T cells; note: % is set by controls: 0 for no effect and ±100 for the full control effect; nearly all actives have a fitted effect of over 45% in size; luciferase light after 4 h
# NS1 function inh: influenza NS1 inhibition. S. cerevisiae slowed by influenza A NS1, growth recovery by OD600. Potency, µM (top dose mostly 46.1 µM), for inactives: top-dose activity, positive = more growth. 0.4% of 270,000 active. AID 2326; active means well fitted rising curve with a large enough effect; inconclusive means small, poorly fitted or top-dose-only effect; inactive means no such curve, though single readings can be large or run the other way; note: nearly all actives have a fitted effect of over 50% in size
#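 Read-out: OD600 growth recovery of NS1-expressing budding yeast. Cells grown overnight at 30C in -URA glucose medium, washed, resuspended and diluted 1:100 in 2% galactose assay medium, pH 6.0. Same strain lacking NS1 served as positive control.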
# Lassa entry inh: Lassa virus entry inhibition. 1.2% of 300,000 active. Lassa virus pseudotype entry inhibition, cell reporter; control for the full effect not named in the record. Potency, µM (highest dose often 37.9 µM), for inactives: at the highest dose activity change, negative = inhibition, most hits filed as inhibitors; active means well fitted inhibition curve with a large enough effect; inconclusive means small, poorly fitted or top-dose-only effect, or effect the other way; inactive means flat fitted curve, though single readings scatter; tested in HEK293 cells; note: % is set by controls: 0 for no effect and ±100 for the full control effect; nearly all actives have a fitted effect of over 50% in size; luciferase read-out
# RE007 growth inh: less growth of the S. pombe RE007 Vpr strain | AID 651644 | S. pombe RE007 Vpr strain, BacTiter-Glo ATP luminescence, 24 h; control for the full effect not named in the record | 0.21% of 360,000 active | Potency, µM (top dose mostly 92.2 µM), for inactives: at the top dose activity change, negative = less growth; active = well fitted falling curve with a large enough effect; inconclusive = small, poorly fitted or top-dose-only effect; inactive = no such curve, though single readings can be large or run the other way;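 note: % is set by controls: 0 for no effect and ±100 for the full control effect; nearly all actives have a fitted effect of over 50% in size; the assay follows cell death caused by Vpr and the record does not say whether a fall means rescue or toxicity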
#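 Fission yeast strain RE007, carrying one chromosomally integrated HIV-1 vpr copy, was seeded at OD 0.01 in PMG+AL medium with 23 nL pinned compound. After 24 h at 30 °C and 99% humidity, viability was read by BacTiter-Glo luminescence.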
# Cruzain Triton: inhibitors of Trypanosoma cruzi cruzain with detergent. P25779. purified cruzain, Z-FR-AMC fluorescence, 0.01% Triton. Potency, µM, without a hit: max response, negative = inhibition, actives largely listed as inhibitors. 0.43% of 200,000 active;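 note: plate controls were neutral wells for no effect and buffer without enzyme for full effect; nearly all actives have a fitted effect of over 40% in size; top concentration of the series not given in the record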
#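 Z-FR-AMC hydrolysis (2 uM substrate) by cruzain (1.5 nM) monitored kinetically at ex 360/em 450 nm after 15 min room-temperature compound exposure; 0.01% Triton X-100, pH 5.5, 5 mM DTT.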
# * hit, by the source's call; ? = inconclusive; . = not tested or not shown; & = joins results of further samples; [ ] = dose if it differs, or a comment. Unless noted, calls come from the whole dose curve; as a rule, active = well fitted curve in the direction sought with a large enough effect; inconclusive = small, poorly fitted or top-dose-only effect, or another doubt; inactive = no such curve, though single readings can be large; an effect the other way counts as inactive or inconclusive. Potency is the fitted concentration of half-maximal effect.
SMILES,Cruzain inh noDet,SARS PLpro yeast,MARV entry inh,StopGo reporter,NS1 function inh,Lassa entry inh,RE007 growth inh,Cruzain Triton
Cc1nn(C(=O)c2ccccc2)c(C)c1S(=O)(=O)N1CCOCC1,7%,.,.,9%,.,-15%[46.1 µM],.,0.8%
CCC(=O)OCCCNc1nc(-c2ccc(Cl)cc2)nc2ccccc12,21%,.,?,-1%,.,-3%[46.1 µM],.,-13%
C/C(=N\NC(=O)CCC(=O)Nc1ccc(C)c(C)c1)c1cccs1,.,0%,?,-10%,1%,14%,5%,.
COc1c(C)cc(Br)cc1C(=O)Nc1ccc(-c2nc3ncccc3o2)cc1,9%,.,3%[46.1 µM],?,.,-9%[46.1 µM],.,-1.2%
Nc1cccc(C2=Nc3cccc4cccc(c34)N2)c1,7.9µM*,0%,?,-25%,13%,3%,-15%,-2.6%
CCN(CC)c1nc(C)nc2c1cnn2CCc1ccccc1,7%,-2%,8%,24%,-11%,-1%,-23%,-2.0%
COc1ccccc1Nc1cc(C(=O)NC2CCC(C)CC2)c2ccccc2n1 (stereo not given),-2%,.,1%[46.1 µM],-20%,.,-1%[46.1 µM],.,-5.8%
N#CC1(C#N)C(C(N)=O)C1c1ccccc1 (stereo not given),9%,-13%,?,0%,27%,7%,3%,-0.1%
O=C(CCCN1C(=O)/C(=C/c2ccc3c(c2)OCO3)SC1=S)Nc1ccc(C(=O)O)cc1,.,3%,.,46%[activator],-3%,.,3%,.
C=CCSc1n[nH]c(-c2cccs2)n1,.,-1%,.,22%,-11%,.,-14%,.
Cc1cc(NC(=O)C(C)C)ncc1NC(=O)c1cccc(F)c1,3%,0%,-3%,-8%,2%,9%,-2%,2.9%
CCOc1ccccc1N1CCN(C(=O)CNC(=O)c2ccc(OC)c(OC)c2)CC1,.,-1%,-2%[46.1 µM],-15%,-9%,?,4%,.

# Brought forward from above: four entries; new compounds follow.
SMILES,Cruzain inh noDet,SARS PLpro yeast,MARV entry inh,StopGo reporter,NS1 function inh,Lassa entry inh,RE007 growth inh,Cruzain Triton
O=C(CCCN1C(=O)/C(=C/c2ccc3c(c2)OCO3)SC1=S)Nc1ccc(C(=O)O)cc1,.,3%,.,46%[activator],-3%,.,3%,.
C=CCSc1n[nH]c(-c2cccs2)n1,.,-1%,.,22%,-11%,.,-14%,.
Cc1cc(NC(=O)C(C)C)ncc1NC(=O)c1cccc(F)c1,3%,0%,-3%,-8%,2%,9%,-2%,2.9%
CCOc1ccccc1N1CCN(C(=O)CNC(=O)c2ccc(OC)c(OC)c2)CC1,.,-1%,-2%[46.1 µM],-15%,-9%,?,4%,.
CCCn1c(C(C)Nc2nc(C)cs2)nc2cc(Cl)c(Cl)cc21 (stereo not given),.,?,.,-28%,12%,.,-13%,.
CCOc1ccccc1CN1CCN(CCCn2cccn2)CC1CCO (stereo not given),.,-1%,.,-6%,-1%,.,-12%,.
Cc1ccnc(NC(=O)c2cc3c(=O)oc4ccc(C)cc4c3s2)c1,.,1%,17%[46.1 µM],?,2%,8%,3%,.
COCCCNC(=O)c1cc2c(-c3cccc(OC)c3)nn(C)c2s1,30%,-2%,?,-1%&-15%,-9%,?,-11%,-8.2%
CC1CCN(c2ccccc2NC(=O)c2ccc([N+](=O)[O-])o2)CC1,.,-3%,-11%[46.1 µM],-2%,3%,.,-13%,.
COc1cn(CC(=O)Nc2ccc(F)cc2)c(CN2CCCCC2)cc1=O,-6%,.,.,-10%,.,-14%[46.1 µM],.,2.6%
COc1ccc(C(=O)Oc2ccc(/C=N/O)cc2)cc1,2%,-9%,2%,26%,-99%,1%,-7%[3.69 µM],-2.6%
Fc1cccc(Cn2ccc(-c3ccc4c(c3)OCO4)n2)c1,4%,-22%,?,37%[activator],-12%,?,-10%,-4.5%
Cc1ccc(C)c2[nH]c(=O)c(CCNC(=O)c3ccc(Br)o3)cc12,.,.,-27%,0%,-20%,0%,-7%,.
O=C(OCc1nnc(-c2ccccc2)o1)C1CCN(C(=O)c2ccc(Cl)cc2)CC1,.,0%,17%,-3%,.,-22%,5%,.
Cc1[nH]c2ccccc2c1C(=O)COC(=O)c1ccc[n+]([O-])c1,.,0%,.,5%,6%,.,-7%,.
COc1ccccc1-c1nn2c(C3COc4ccccc4O3)nnc2s1 (stereo not given),?,7%,3%,4%,-115%,-22%,8%[3.69 µM],-3.5%
COC(=O)N/N=C\C=C\c1ccc2c(c1)OCO2,-1%,-3%,?,40%[activator],-1%,-13%,-11%,3.3%
COc1cccc(NC(=O)/C=C/c2ccc([N+](=O)[O-])cc2)c1,.,-3%,?,25%,0%,-23%,?,.
COc1cc(/C=N/NC(=O)c2ccc(=O)[nH]n2)ccc1O,-6%,1%,13%,1%,1%,23%,-7%,-7.2%
Cc1ccc(-n2ncc3c(=O)n(CC(=O)N4CCN(c5ccccc5)CC4)cnc32)cc1,.,0%,-4%,-14%,.,-2%,-22%,.
CCCn1nnnc1NCc1cccc(Cl)c1,.,0%,-1%[46.1 µM],9%,8%,?,6%,.
CCc1ccc(C2c3c(oc4ccc(F)cc4c3=O)C(=O)N2c2nc(C)c(C(=O)OC)s2)cc1 (stereo not given),15%,.,16%[46.1 µM],-8%,.,-2%[46.1 µM],.,-1.9%
COc1ccc(N2CCN(Cc3cc(=O)oc4cc(C)c(Cl)cc34)CC2)cc1,?,0%,-13%,-21%,-6%,-15%,2%,-4.8%
Cc1ccccc1C(=O)NC(=S)NCCN1CCOCC1,-2%,14%,?,-15%,4%,-2%,-14%,-0.7%
COc1ccc(OC)c(N(CC(=O)Nc2ccccc2F)S(=O)(=O)c2ccccc2)c1,.,.,?,6%,.,-29%,-3%,.
COc1ccc(OC)c(C2N(c3cc(C)on3)C(=O)C3CCCN32)c1 (stereo not given),-3%,3%,-5%,13%,-4%,-17%,-6%,7.9%
Cc1ccc(C)c(NC(=O)c2ccc3ccccc3n2)c1,-6%,-1%,3%[46.1 µM],-9%,-14%,?,4%,-2.4%
CC(C)CN(C)C(=O)CCc1nnc(Cc2cccc(C(F)(F)F)c2)o1,.,1%,1%[46.1 µM],27%,-1%,19%[46.1 µM],-19%,.
Fc1cc(NCc2ccccc2)nc(NCc2ccccc2)n1,-7%,-4%,9%,4%,-2%,8%,-5%,-2.7%
Cn1c(SCC(=O)c2ccccc2)nnc1-c1ccco1,-5%,11%,12%,30%[activator],2%,16%,17%,-1.5%
Cc1cc(C)n(C(=O)c2c([N+](=O)[O-])c(C)nn2C)n1,13%,5%,19%,-3%,-4%,-18%,0%,-3.2%
O=C(COc1ccc(Br)cc1)Nc1ccc(CN2CCOCC2)cc1,.,-2%,-29%,?,-12%,-21%,-6%,.
CCCc1cc(C(=O)N2CCCC(C(=O)c3cc(C)c(OC)c(C)c3)C2)n(C)n1 (stereo not given),.,-1%,.,-10%,6%,.,10%,.
Cc1ccc(C(C)(C)C)cc1S(=O)(=O)Nc1nc2ccccc2nc1Cl,.,-6%,.,6%,-30%,.,20%,.
CN1CCc2nc(SCc3ccc(C(C)(C)C)cc3)c(C#N)cc2C1,-2%,-17%,?,?,-3%,-17%,-2%,-5.3%
CC1CN(C(=S)Nc2ccc(SC(F)F)cc2)CC(C)O1 (stereo not given),.,11%,-18%[46.1 µM],51%[activator],-13%,-2%,7%,.
COCCCNC(=S)NCCNc1nc2c(C)c(C)ccc2cc1C#N,.,-1%,?,?,6%,-21%,5%,.
Cc1cc(O)c(Oc2cc(C)cc(O)c2O)c(O)c1,.,0%,.,-21%,4%,.,3%,.
CCc1cccc(NC(=O)c2cccc3c2C(=O)N(CC2CCCO2)C3)c1 (stereo not given),.,-19%,.,0%,-44%,.,0%,.
COc1ccc(Cl)cc1NC(=O)CSc1nc(=O)n(CCN(C)C)c2c1CCCC2,.,-5%,?,8%,.,?,-9%,.
O=C(OCC1CC(c2ccccc2)=NO1)c1ccc(Br)cc1 (stereo not given),2%,0%,15%,13%,-6%,2%,-13%,1.2%
O=C(Nc1ccc(Br)cc1)c1cccnc1N1CCOCC1,.,1%,.,-12%,5%,.,-15%,.
O=C1c2cccc([N+](=O)[O-])c2C(=O)N1c1c[nH]c(=O)[nH]c1=O,.,2%,4%[46.1 µM],-7%,.,27%[46.1 µM],-1%,.
CCCSCCCNC(=O)CN1C(=O)COc2ccc(S(=O)(=O)N3CCCCCC3)cc21,16%,.,0%[46.1 µM],8%,.,16%[46.1 µM],.,-1.4%
COCCCNc1nc(N)c([N+](=O)[O-])c(Nc2cc(OC)ccc2OC)n1,.,0%,?,-8%,2%,-13%,5%,.
COc1cccc(NC(=O)c2ccccc2N(Cc2ccccc2)S(C)(=O)=O)c1,.,4%,.,9%,7%,.,11%,.
CCOc1ccccc1C(=O)NCC(=O)OCC(=O)N1CCCC1,.,-1%,?,-13%,.,-11%,16%,.
CCn1c(O)c(C=Nc2ccc(N3CCOCC3)cc2)c(=O)n(CC)c1=S,?,3%,-10%,-22%,2%,-6%,-18%,-5.1%
COc1ccc(C(=O)/C=C/Nc2ccc(S(=O)(=O)Nc3nc(C)cc(C)n3)cc2)cc1OC,?,16%,-10%,98%[activator],-7%,?,-29%,-8.2%
O=C(Nc1ccc(F)cc1)c1cccc2c1C(=O)N(Cc1ccccn1)C2,1%,-3%,-8%,3%,-48%,?,-9%,-4.9%
Cc1cc(NC(=O)CCC(=O)N(CC(=O)NC2CCCC2)c2cccc(C)c2C)no1,.,.,?,-7%,.,4%,15%,.
Cc1cccc(C)c1NC(=O)c1nc(S(=O)(=O)Cc2ccccc2)ncc1Cl,.,-10%,11µM*,28µM*,-39%,?,-7%,.
Cc1cc(F)ccc1NC(=O)Nc1ccc2c(c1)OCO2,.,0%,.,25%,2%,.,-9%,.

# Hits appear at their usual frequency; about 4.6% have a hit in one of these screens.
